Bioassay records: PubChem, National Center for Advancing Translational Sciences (NCATS)
TRPML1 ag: qHTS for Agonists of the Human Mucolipin Transient Receptor Potential 1 (TRPML1). Mucolipin-1 (Homo sapiens), Q9GZU1. TRPML1-expressing cells, Ca2+ dye fluorescence, FDSS; host cell line not named in the record; reference of the full effect not given here. activation, % (test concentration not listed). 410,000 compounds, 0.12% hits; in the data active = activation above about 50%; inconclusive = about 30% to 50%; inactive = below about 30%; note: 0% is about no effect; the text of the record puts the active cut at 80%
Target sequence (Q9GZU1 whole entry, looked up): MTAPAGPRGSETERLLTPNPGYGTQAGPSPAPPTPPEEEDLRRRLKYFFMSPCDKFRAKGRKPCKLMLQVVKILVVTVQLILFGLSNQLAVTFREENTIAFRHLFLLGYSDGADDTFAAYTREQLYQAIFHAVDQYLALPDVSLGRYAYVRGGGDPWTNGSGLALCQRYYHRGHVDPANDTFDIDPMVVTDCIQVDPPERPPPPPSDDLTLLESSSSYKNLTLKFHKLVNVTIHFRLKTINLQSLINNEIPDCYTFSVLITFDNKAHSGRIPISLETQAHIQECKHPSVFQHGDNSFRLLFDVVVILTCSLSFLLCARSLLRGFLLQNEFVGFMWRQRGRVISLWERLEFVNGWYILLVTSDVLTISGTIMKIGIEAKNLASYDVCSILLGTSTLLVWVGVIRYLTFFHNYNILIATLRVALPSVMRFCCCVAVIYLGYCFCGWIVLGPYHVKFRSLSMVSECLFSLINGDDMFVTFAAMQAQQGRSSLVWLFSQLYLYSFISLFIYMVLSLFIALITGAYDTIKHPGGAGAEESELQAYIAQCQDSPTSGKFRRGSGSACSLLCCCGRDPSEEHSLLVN
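Kinetic FDSS Ca2+ read in Tet-induced TRPML1-DL cells (ABD Ca8 dye plus quencher, 45-90 min RT loading): baseline, then compound, then 110 s agonist window; EC80 agonist 54-4 at 4uM final added afterwards for a 110 s antagonist window.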
ClpP mod: qHTS Assay for Activators of ClpP | purified B. subtilis ClpP, FRET peptide cleavage, 20 min | Potency, µM (highest dose often 57.5 µM), for the others: at the highest dose activity change, negative = active | 340,000 compounds, 1.9% hits; active = well fitted falling curve with a large enough effect; inconclusive = small, poorly fitted or top-dose-only effect; inactive = no such curve, though single readings can be large or run the other way; note: potency is the fitted concentration of half-maximal effect; the source files actives as falling curves though it sought activators and does not explain the sign; nearly all actives have a fitted effect of over 65% in size; many hits overshoot -100%
Target sequence (P80244 whole entry, looked up): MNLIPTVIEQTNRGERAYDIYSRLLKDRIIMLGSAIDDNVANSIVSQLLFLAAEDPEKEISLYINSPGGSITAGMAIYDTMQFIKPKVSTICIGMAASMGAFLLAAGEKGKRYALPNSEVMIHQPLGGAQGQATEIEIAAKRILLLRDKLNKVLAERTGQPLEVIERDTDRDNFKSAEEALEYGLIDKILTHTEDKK
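Buffer: 100 mM Tris/HCl pH8, 100 mM KCl, 0.05% low protease BSA, 2.5% glycerol, 0.01% Tween-20. ClpP 10 microg/mL final; 20 min RT; delta FRET normalized to ADEP and DMSO controls.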
* = called active by the depositor; u = inconclusive; & = joins results of further samples. These rows are one share of the data; the hit share may differ from the screen's.

SMILES	TRPML1 ag	ClpP mod
COc1ccc(C(C)(O)c2nc(-c3cccc(C(=O)O)c3)cs2)cc1 (stereo not given)	-0.6	1.5%
O=C1NC[C@@H](CCCCN2C[C@H](Cc3ccccc3)N(CC3CCCCC3)C(=O)C2=O)N(CCc2ccccc2)C1=O	1.1	0.6%
COCOc1cccc(CN2CCC(C)(Oc3ccc(SC)cc3)C2)c1 (stereo not given)	-0.2	-0.4%
COCCN(Cc1ccc(OC)cc1)c1c(C)nc2ccc(C(=O)NCCc3c[nH]c4ccccc34)cn12	-0.6	-3.5%
OC(c1ccccc1)(c1nc(/C=C/c2ccccc2)cs1)C(F)(F)F (stereo not given)	-0.2	-8.6%
COc1ccc(CN2C(=O)N(c3ccccc3)C(=O)C2c2ccccc2)cc1COc1ccc(NC(C)=O)cc1 (stereo not given)	-0.4	0.1%
Cn1c(=O)c2c(-c3ccccc3)n(-c3cc(C(=O)O)ccc3O)cc2n(C)c1=O	-0.5	-15%
Nc1nc(N)c2ncn(C3C=CC(CO)C3)c2n1 (stereo not given)	-0.4	-2.8%
N#Cc1ccc(-c2nc3c4ccccc4ccn3c2CC2CCCCC2)cc1	-0.2	4.8%
CCCCNc1c(-c2ccccn2)nc2nc(C)cc(C)n12	0.6	-9.4%
CCN(CC)CCCOc1cc2nc(N3CCCN(C)CC3)nc(NC3CCN(C)CC3)c2cc1OC	-0.2	4.4%
CN(C)c1ccc(/C=C2\C=Cc3cc(N)ccc32)cc1	-0.8	-2.9%

Ordered by heavy-atom count (ascending): some entries from above.
SMILES	TRPML1 ag	ClpP mod
CCCCNc1c(-c2ccccn2)nc2nc(C)cc(C)n12	0.6	-9.4%
N#Cc1ccc(-c2nc3c4ccccc4ccn3c2CC2CCCCC2)cc1	-0.2	4.8%
O=C1NC[C@@H](CCCCN2C[C@H](Cc3ccccc3)N(CC3CCCCC3)C(=O)C2=O)N(CCc2ccccc2)C1=O	1.1	0.6%

(continued)
SMILES	TRPML1 ag	ClpP mod
CN(C)C(=O)COc1ccccc1C(=O)OCC(=O)N(CCC#N)c1ccccc1	-1.0	-8.0%
CC(C)C[C@H]1CN([C@@H](Cc2ccc(O)cc2)CN2CCC[C@H]2CN2C(=O)C(=O)NC[C@@H]2Cc2ccccc2)C(=O)C(=O)N1CC1CCCCCC1	-0.2	-3.1%
COc1ccc(CNc2nc(Cl)nc3nc[nH]c23)cc1	0.4&-0.9	0.3%&1.1%
O=C(NCCN1CCC(n2c(=O)[nH]c3ccccc32)CC1)c1c(F)cccc1F	-0.1	-1.2%
O=C(O)C(=Cc1ccccc1Cl)c1ccccc1	-0.5	-0.4%
COc1cccc(C(=O)N2CCC[C@H]2C(=O)N2CCC[C@H]2C(=O)NCc2ccccn2)c1	0.5	1.3%
O=C1c2cccnc2C(=O)N1c1nc(-c2ccccc2)cs1	-0.4	-18%
COC(=O)c1ccc(C(=O)N2CCCCCC2(C)C(=O)NC(C)C)cc1 (stereo not given)	0.0	1.2%
CC[C@@H]1Cc2[nH]c(=O)[nH]c(=O)c2[C@H](c2ccc(Cl)cc2)O1	-0.8	1.3%
Cn1c(=O)c2cc(NC(=S)NCc3ccccc3F)ccc2n1Cc1cccc(C(F)(F)F)c1	-0.7	4.3%
COc1cc(F)ccc1-c1cc(C(=O)NCc2cccc(Cl)c2)[nH]n1	-0.3	-6.0%
CCNC(=O)c1cc2c(c(-c3cccc(-c4ccccc4F)c3)n1)[C@H](CCO)N(C(=O)CC)C2	-0.4	1.6%
COCCCNC(=O)c1cccc2c(-c3ccc(O)c(OC)c3)coc12	-1.1	1.0%
COC(=O)c1ccc2nc(-c3ccc(Cl)cc3)c(CC3CCCCC3)n2c1	-0.7	-16%
CCN(CCO)c1ccc(Nc2cc(-c3ccc(-c4ccccc4)cc3)ncn2)cc1	-0.1	1.0%
COc1ccc(NC(=O)C2Cc3c(-c4ccncc4)ccnc3O2)cc1OC (stereo not given)	-0.6	0.3%
Nc1[nH]c(C(=O)c2ccccc2)c(-c2ccc(Cl)cc2Cl)c1C(=O)c1ccc(Cl)c(Cl)c1	-0.3	-3.5%
S=C(NCCCc1cnc[nH]1)NCCCN(CCc1ccc(Cl)cc1)c1ccc(Br)cn1	0.5	-1.8%
COC(=O)/C=C/c1ccccc1S(=O)(=O)NC(C)C	-0.3	1.5%
O=S(=O)(c1cccc(C(F)(F)F)c1)N1CCN(c2nc(-c3ccccc3)nc3ccccc23)CC1	-0.4	-2.7%
CC(C)(C)n1nnnc1C(c1ccccc1)N1CCN(c2ccccn2)CC1 (stereo not given)	-0.4	-3.7%
CCNC(=O)C1(C)CCCN1C(=O)c1ccc2c(c1)OCO2 (stereo not given)	0.0	-1.0%
CSc1ccc(/C=C2\C=Cc3ccc([N+](=O)[O-])cc32)cc1	-0.3	-1.8%
CC(C)(C)S(=O)N1Cc2cc(C(=O)NCc3ccc(Oc4ccccc4)cc3)nc(-c3cccc(-c4cc5ccccc5o4)c3)c2[C@@H]1CCO (stereo not given in full)	0.1	22%
C[n+]1ccc(C(c2c[nH]c3ccccc23)c2cc[n+](C)c3ccccc23)c2ccccc21	1.1	-16%
COCCNC(=O)C1(C)Cc2c(-c3cccc(C(N)=O)c3)ccnc2O1 (stereo not given)	-0.7	-6.8%
CN(C)c1ccc(C=NC2CCc3ccccc32)cc1 (stereo not given)	4.5	-25%
CC(=O)NC(c1ccc(F)c(F)c1)c1nc(-c2cc3ccccc3o2)cs1 (stereo not given)	-0.5	3.3%
C[N+]1(CC(=O)c2ccc(-c3ccccc3)cc2)CCOCC1	-0.8	-1.3%
CCOc1ccc(NC(=O)c2nc(S(=O)(=O)Cc3ccccc3)ncc2Cl)cc1	0.0	-0.4%
Cc1noc(C)c1-c1ccc(C(=O)Nc2ccc(C(C)C)cc2)c2occc12	4.2	u
COc1ccc(CCn2c3c(c(=O)[nH]c2=S)CN(CC(C)C)CN3)cc1OC	-0.8	-2.0%
S=C(NCCCN(Cc1ccc(Cl)cc1)c1ccc(Br)cn1)NCc1ccc2nc[nH]c2c1	-0.5	-6.8%
COc1ccc(CNC(=O)Nc2nnc([C@H]3C[C@H](O)[C@@H](CO)O3)s2)cc1	-0.3	-2.8%
COC(=O)C[C@H]1c2cc(C(F)(F)F)ccc2S(=O)(=O)N1C(C)C	-0.8	3.2%
CC(=O)Nc1ccc(CN(C)c2c(C)nc3ccc(C(=O)N4CCN(c5ccccc5)CC4)cn23)cc1	-1.1	0.4%
CCC(=O)N1CCC1(C)C(=O)Nc1cnc2ccccc2c1 (stereo not given)	-0.2	-1.8%
Cc1cccc(C)c1-n1nnnc1C1(C)CCC(=O)N1CC(F)(F)F (stereo not given)	0.2	-3.1%
CCc1nc2c(OCC(N)=O)cccn2c1N(C)C(=O)c1cccs1	-0.6	-0.1%
C[C@@H]1CC2=C(C(=O)OC(C)(C)O2)[C@H](c2ccc(Cl)cc2)O1	-0.9	1.8%
CC(C)(C)n1nnnc1C(c1cc2ccccc2o1)N1CCCCC1 (stereo not given)	-0.2	0.7%
CC(=O)Oc1ccccc1Cn1c(C)c(C(=O)NCc2ccc(F)cc2)sc1=O	3.7	0.5%
Cc1ccc(C(O)c2ncc(-c3ccc(F)cc3)[nH]2)c(C)c1 (stereo not given)	-1.2	-4.3%
O=C1NC[C@@H](CCCCN2CCN(CC3CCCCC3)C(=O)C2=O)N(Cc2ccccc2)C1=O	-0.9	-0.3%
CCOC(=O)C1CCCN(C(=O)c2cccc3ccccc23)CC1 (stereo not given)	-1.1	0.3%
OC[C@@H]1CN(Cc2ccc(Cl)cc2)C[C@H](n2cnc3c(N4CCOCC4)ncnc32)O1	-0.3	0.2%
COc1cccc(-c2cnc(C(O)c3ccc(F)cc3)[nH]2)c1 (stereo not given)	-0.8	-4.1%
Nc1[nH]c(C(=O)c2ccccc2)c(-c2ccc(F)cc2)c1C(=O)NCc1ccccc1	-0.5	-1.9%
C[C@H](NC(=O)[C@@H]1CCCN1C(=O)[C@@H]1CCCN1C(=O)c1ccc(Cl)cc1)c1ccccc1	-1.2	0.6%
CCCCC[C@@H](C)N1C[C@H](COCc2ccccc2)Oc2cc(N3CCC[C@H]3CO)ccc2S1(=O)=O	-0.4	-15%
CC1(Cc2cccc(C(F)(F)F)c2)C(=O)Nc2ccc(-c3ccc(F)c(Cl)c3)cc21 (stereo not given)	-0.6	-8.1%
N#Cc1cccc(S(=O)(=O)N2CCN(S(=O)(=O)c3ccc4c(c3)OCCO4)CC2)c1	-0.1	-3.7%
O=[N+]([O-])c1ccc2c(c1)C=C/C2=C/c1ccccc1	-0.9	3.0%
O=C(COc1ccccc1C(=O)Nc1ccccc1)Nc1ccccc1Cl	-0.3	-10%
CC1(C(=O)Nc2ccccc2Br)CCN1C(=O)Cc1ccccc1Cl (stereo not given)	-1.1	2.2%
Cc1ccc(S(=O)(=O)N2CCN(c3nc(-c4ncccn4)nc4ccccc34)CC2)cc1	-0.5	-2.2%
CS(=O)(=O)c1ccc(C(=O)OCC(=O)Nc2cc(C(F)(F)F)ccc2Cl)cc1[N+](=O)[O-]	-0.4	-0.2%
Cc1ccc(S(=O)(=O)N2CCC(=O)N([C@H](COCc3ccccc3)C(C)C)CC2)cc1	-0.6	1.9%
CCCNC(=O)c1cc(C2CCCN(C(=O)C3CC3)C2)on1 (stereo not given)	-0.1	0.1%
COc1ccc2c(c1)C(C)(Cc1ccc(C(=O)c3ccccc3)cc1)C(=O)N2 (stereo not given)	-0.9	0.2%

Shown with each value named: part of the list above.
N#Cc1cccc(S(=O)(=O)N2CCN(S(=O)(=O)c3ccc4c(c3)OCCO4)CC2)c1
  TRPML1 ag: -0.1
  ClpP mod: -3.7%

O=[N+]([O-])c1ccc2c(c1)C=C/C2=C/c1ccccc1
  TRPML1 ag: -0.9
  ClpP mod: 3.0%

O=C(COc1ccccc1C(=O)Nc1ccccc1)Nc1ccccc1Cl
  TRPML1 ag: -0.3
  ClpP mod: -10%

CC1(C(=O)Nc2ccccc2Br)CCN1C(=O)Cc1ccccc1Cl (stereo not given)
  TRPML1 ag: -1.1
  ClpP mod: 2.2%

Further records follow.
SMILES	TRPML1 ag	ClpP mod
CCCCCCN(CCCCCC)c1ccc(/C=C/c2ccnc3ccccc23)cc1	8.3	-0.6%
O=C(Nc1nnc([C@@H]2C[C@H](O)[C@@H](CO)O2)s1)c1cccc(Cl)c1	-0.1	-4.1%
COc1ccccc1CNC(=O)Nc1nnc([C@H]2C[C@H](O)[C@@H](CO)O2)s1	-0.6	-6.1%
CN1CCN(C(=O)c2cccc(-c3cnc4cnc(-c5ccccc5Oc5ccccc5)cn34)c2)CC1	-0.8	5.9%
Cc1ccc2[nH]c(=O)c(CN(Cc3ccccc3)Cc3nnnn3Cc3ccco3)cc2c1	-0.2	-22%
CCCCCCn1cc(CN2CC(N(C)C)CS2(=O)=O)nn1 (stereo not given)	-0.8	0.4%
c1ccc2c(c1)ccn1c(Cc3ccsc3)c(C3CCCCC3)nc21	0.7	u
CCCC(=O)Oc1ccc2[nH]c(C(=O)c3cc4ccccc4[nH]3)cc2c1	-0.5	-6.6%
ClN=C1C=CC=CC1=NCl	-0.6	-9.5%
O=C(NCc1ccccc1)c1cc(C2COCCN2S(=O)(=O)c2cccs2)on1 (stereo not given)	-0.4	-2.7%
CCc1nc2ccc(C(=O)NC3CCN(Cc4ccccc4)CC3)cn2c1N(C)Cc1cc2ccccc2s1	-0.8	-8.2%
Oc1ccc(Br)cc1C1C=C(c2ccc3c(c2)OCO3)NC(c2ccc(Br)cc2)N1 (stereo not given)	0.0	2.5%
c1ccc(-c2nc(-c3cnc4ccccc4n3)cs2)cc1	0.1	-1.8%
Fc1ccc(CCNc2ncnc3nc[nH]c23)cc1	-0.7&-0.5	-1.4%&-4.9%
O=Cc1ccc(/C=C2\C=Cc3ccccc32)cc1	-0.4	15%
Cc1ccc(S(=O)(=O)NC(=O)C2(C)CCN2C(=O)CC2CCCC2)cc1 (stereo not given)	-0.1	-1.0%
COc1cc2nc(N3CCCN(C)CC3)nc(Nc3ccncc3)c2cc1OC	-0.3	4.3%
Cc1nc(NC(=O)C(C)(C)C)sc1-c1nc(N)sc1-n1cc(-c2ccccc2)nn1	-0.9	0.9%
COc1ccc(-c2coc3c(C(=O)NCc4ccc(OC)c(OC)c4)cccc23)c(C)c1	-0.2	u
CC(=O)Nc1ccc(-c2ccnc3c2CC(C)(C(=O)Nc2ccc(C(C)C)cc2)O3)cc1 (stereo not given)	-0.1	5.0%
CN1CCN(c2ncnc3c2ncn3[C@H]2CN(Cc3cccnc3)C[C@@H](CO)O2)CC1	-0.5	-4.1%
CC1(C(=O)NS(=O)(=O)c2ccc(F)cc2F)CCN1C(=O)Cc1ccccc1Cl (stereo not given)	-0.5	-1.9%
O=C(Nc1ccc2c(c1)OCO2)C1Cc2c(-c3ccc4c(c3)OCO4)ccnc2O1 (stereo not given)	-0.8	4.5%
CN(C)c1ccc(CNC(=O)C2(C)Cc3c(-c4cccc(C(F)(F)F)c4)ccnc3O2)cc1 (stereo not given)	-0.7	-5.1%
O=[N+]([O-])c1ccc(-c2cc3ccccc3[nH]2)cc1	3.4	1.0%
Cc1ccccc1S(=O)(=O)NC(=O)C1(C)CCN1C(=O)C(C)(C)c1ccccc1 (stereo not given)	-0.5	0.0%
